NS1 inh: inhibitors of influenza NS1 protein function | S. cerevisiae slowed by influenza A NS1, growth recovery by OD600 | Potency, µM (titrated, usually from 46.1 µM), for the others: top-dose activity, positive = more growth | hit rate 0.4% among 270,000 | AID 2326; active means well fitted rising curve with a large enough effect; inconclusive means small, poorly fitted or top-dose-only effect; inactive means no such curve, though single readings can be large or run the other way; also: nearly all actives have a fitted effect of over 50% in size
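In this qHTS, NS1 from influenza A is expressed in budding yeast, where it slows growth. Cells are switched from glucose to 2% galactose medium (pH 6.0, -URA), treated with compound, and growth recovery is read at OD600.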
2A StopGo: lowers the luciferase signal of an FMDV 2A StopGo reporter; human cells with a luciferase reporter of 2A StopGo recoding; control for the full effect not named in the record; Potency, µM (series often up to 57.9 µM), for the others: at the highest dose signal change, negative = less light; hit rate 1.2% among 410,000; active = well fitted falling curve with a large enough effect; inconclusive = small, poorly fitted or top-dose-only effect; inactive = no such curve, though single readings can be large or run the other way; tested in HEK293T cells; also: % is scaled to controls: 0 for no effect and ±100 for the full control effect; nearly all actives have a fitted effect of over 45% in size; luciferase light after 4 h
Cruzain noTriton: blocks cruzain activity in detergent-free assay. purified cruzain, Z-FR-AMC fluorescence, no detergent. Potency, µM, for inactives: max response, negative = inhibition, most hits filed as inhibitors. hit rate 2.3% among 200,000;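 also: plate controls were enzyme without inhibitor for no effect and buffer without enzyme for full effect; nearly all actives have a fitted effect of over 40% in size; top concentration of the series not given in the record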
Target sequence (P25779 123-467 limits assumed): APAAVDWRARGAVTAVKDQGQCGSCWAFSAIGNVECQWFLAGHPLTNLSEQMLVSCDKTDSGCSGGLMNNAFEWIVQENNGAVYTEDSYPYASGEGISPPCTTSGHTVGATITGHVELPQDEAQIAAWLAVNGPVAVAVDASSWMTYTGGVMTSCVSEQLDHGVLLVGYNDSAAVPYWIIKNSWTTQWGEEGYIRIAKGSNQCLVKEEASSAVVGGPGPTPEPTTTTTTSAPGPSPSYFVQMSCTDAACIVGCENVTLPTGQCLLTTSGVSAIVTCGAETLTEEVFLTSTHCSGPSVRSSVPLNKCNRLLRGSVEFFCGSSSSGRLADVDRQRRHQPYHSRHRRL
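Purified cruzain at 1.5 nM, pre-incubated 15 min with compound at room temperature in 100 mM sodium acetate pH 5.5, 5 mM DTT, 0.00005% Triton X-100. Reaction started with 2 uM Z-FR-AMC; AMC fluorescence increase over 60 s gives rate.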
Cruzain Triton: blocks cruzain activity in presence of Triton detergent. P25779. purified cruzain, Z-FR-AMC fluorescence, 0.01% Triton. Potency, µM, for the others: max response, negative = inhibition, most hits filed as inhibitors. hit rate 0.43% among 200,000. AID 1478;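 also: plate controls were neutral wells for no effect and buffer without enzyme for full effect; nearly all actives have a fitted effect of over 40% in size; top concentration of the series not given in the record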
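In this qHTS format, compounds are incubated with 1.5 nM cruzain for 15 min at room temperature before 2 uM Z-FR-AMC is added. Release of AMC is followed at 360/450 nm, and progress is taken as the 60 s fluorescence difference.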
SARS PLP yeast: blocks SARS-CoV papain-like protease in a yeast assay. S. cerevisiae expressing SARS-CoV PLpro, growth rescue; control for the full effect not named in the record. hit rate 0.19% among 330,000. Potency, µM (top dose mostly 32.9 µM), for the others: at the top dose activity, positive = growth rescue; active means well fitted rising curve with a large enough effect; inconclusive means small, poorly fitted or top-dose-only effect; inactive means no such curve, though single readings can be large or run the other way; also: 0% is about no effect; nearly all actives have a fitted effect of over 55% in size; growth read by luminescence after 48 h
RE007 growth inh: less growth of the S. pombe RE007 Vpr strain. Potency, µM (titrated, usually from 92.2 µM), for the others: top-dose activity change, negative = less growth. AID 651644. hit rate 0.21% among 360,000. S. pombe RE007 Vpr strain, BacTiter-Glo ATP luminescence, 24 h; control for the full effect not named in the record; active = well fitted falling curve with a large enough effect; inconclusive = small, poorly fitted or top-dose-only effect; inactive = no such curve, though single readings can be large or run the other way;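 also: % is scaled to controls: 0 for no effect and ±100 for the full control effect; nearly all actives have a fitted effect of over 50% in size; the assay follows cell death caused by Vpr and the record does not say whether a fall means rescue or toxicity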
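Fission yeast strain RE007, carrying one chromosomally integrated HIV-1 vpr copy, was seeded at OD 0.01 in PMG+AL medium with 23 nL pinned compound. After 24 h at 30 °C and 99% humidity, viability was read by BacTiter-Glo luminescence.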
Lassa entry inh: Lassa virus entry inhibition. Lassa virus pseudotype entry inhibition, cell reporter; control for the full effect not named in the record. Potency, µM (titrated, usually from 37.9 µM), for inactives: top-dose activity change, negative = inhibition, hits mostly inhibitors. hit rate 1.2% among 300,000; active means well fitted inhibition curve with a large enough effect; inconclusive means small, poorly fitted or top-dose-only effect, or effect the other way; inactive means flat fitted curve, though single readings scatter; tested in HEK293 cells; also: % is scaled to controls: 0 for no effect and ±100 for the full control effect; nearly all actives have a fitted effect of over 50% in size; luciferase read-out
Marburg entry inh: Marburg virus entry inhibition; Potency, µM (series often up to 37.8 µM), inactives show at the top dose activity change, negative = inhibition, actives largely listed as inhibitors; AID 540276; Marburg virus pseudotyped entry inhibition, cell reporter; control for the full effect not named in the record; about a third of the inactives were read at about 46 µM; hit rate 1.8% among 300,000; active = well fitted inhibition curve with a large enough effect; inconclusive = small, poorly fitted or top-dose-only effect, or effect the other way; inactive = flat fitted curve, though single readings scatter; tested in HEK293 cells; about a fifth of its hits are not listed in these tables; also: % is scaled to controls: 0 for no effect and ±100 for the full control effect; luciferase read-out
Starred values were filed as active, the others as inactive; & = joins results of further samples; [ ] = remark or other dose. Unless noted, calls follow the shape of the dose curve; as a rule, active = well fitted curve in the direction sought with a large enough effect; inconclusive = small, poorly fitted or top-dose-only effect, or another doubt; inactive = no such curve, though single readings can be large; an effect the other way counts as inactive or inconclusive. Potency is read from the fitted curve at half-maximal effect.

COc1ccc2cc(-c3cc(C(=O)OCC(=O)Nc4c(C)n(C)n(-c5ccccc5)c4=O)c4ccccc4n3)ccc2c1 was read as NS1 inh 3%, 2A StopGo -66%, Cruzain noTriton -7%, Cruzain Triton -6.7%, SARS PLP yeast -9%, RE007 growth inh 6%, Lassa entry inh inconclusive and Marburg entry inh inconclusive.
Screening CCOC(=O)c1c(C)[nH]c(C)c1S(=O)(=O)NCCN1CCN(c2cc(Cl)ccc2C)CC1 returned NS1 inh -10%, 2A StopGo 7%, SARS PLP yeast 5% and RE007 growth inh -4%.
Screening Cc1ccc(OC(=O)CSc2nnc(CNC(=O)c3ccccc3)o2)cc1 returned 2A StopGo -12%, Cruzain noTriton 13%, Cruzain Triton -3.9%, Lassa entry inh 0%[46.1 µM] and Marburg entry inh -3%[46.1 µM].
`C[C@@H]1CCC[C@H](C)N1Cc1nc(Cc2ccccc2Cl)no1` gave NS1 inh 2%, 2A StopGo -4%, SARS PLP yeast 0%, RE007 growth inh -18%, Lassa entry inh 0% and Marburg entry inh -10%[46.1 µM].
`COc1cc(CNCc2ccc(OC)c3ccccc23)cc(OC)c1OC` gave NS1 inh 12%, 2A StopGo inconclusive, SARS PLP yeast 18% and RE007 growth inh -16%.
O=C(O)c1nc(Cl)c(Cl)c(N/N=C/c2ccccc2C(F)(F)F)c1Cl was read as NS1 inh 6%, 2A StopGo -6%, SARS PLP yeast 1%, RE007 growth inh -14%, Lassa entry inh -13%[46.1 µM] and Marburg entry inh 13%[46.1 µM].
For COCC(=O)N1CCC(Oc2ccc(C(=O)N3C[C@@H]4CCC[C@H]3C4)cc2)CC1 the results were NS1 inh -3%, 2A StopGo -4%, SARS PLP yeast 1%, RE007 growth inh -4%, Lassa entry inh 0%[46.1 µM] and Marburg entry inh 0%[46.1 µM].
O=C(COC(=O)c1cc(-c2cccs2)nn1-c1ccccc1)Nc1cccc([N+](=O)[O-])c1 was read as NS1 inh 3%, 2A StopGo -12%, Cruzain noTriton inconclusive, Cruzain Triton -4.8%, SARS PLP yeast 9%, RE007 growth inh -20%, Lassa entry inh 13% and Marburg entry inh 9%[46.1 µM].
For O=C(N[C@@H](Cc1ccccc1)C(=O)O)c1cccnc1 the results were NS1 inh inconclusive, 2A StopGo -21%, Cruzain noTriton 2%, Cruzain Triton -6.7%, SARS PLP yeast 18%, RE007 growth inh -22% and Marburg entry inh 3%.
For CC1(C)Oc2ccc3ccc(=O)oc3c2/C(=C/NCCO)C1=O the results were NS1 inh -1%, 2A StopGo -29%, Cruzain noTriton -2%, Cruzain Triton -1.0%, SARS PLP yeast -1%, RE007 growth inh 19%, Lassa entry inh 6% and Marburg entry inh -23%.

Random excerpt: 2 compounds from above.
`C[C@@H]1CCC[C@H](C)N1Cc1nc(Cc2ccccc2Cl)no1` gave NS1 inh 2%, 2A StopGo -4%, SARS PLP yeast 0%, RE007 growth inh -18%, Lassa entry inh 0% and Marburg entry inh -10%[46.1 µM].
For CC1(C)Oc2ccc3ccc(=O)oc3c2/C(=C/NCCO)C1=O the results were NS1 inh -1%, 2A StopGo -29%, Cruzain noTriton -2%, Cruzain Triton -1.0%, SARS PLP yeast -1%, RE007 growth inh 19%, Lassa entry inh 6% and Marburg entry inh -23%.

Next section:
COc1ccc(Nc2nc(OC)nc(N3CCN(c4ccc(OC)cc4)CC3)n2)cc1 was read as NS1 inh -40%, 2A StopGo 7%, Cruzain noTriton -7%, Cruzain Triton -0.9%, SARS PLP yeast 2%, RE007 growth inh 5%, Lassa entry inh -6% and Marburg entry inh -11%&-11%.
Cc1[nH]c(=O)[nH]c(=O)c1S(=O)(=O)N1CCCCC1 was read as NS1 inh -3%, 2A StopGo -1%, SARS PLP yeast 1%, RE007 growth inh 0%, Lassa entry inh -10% and Marburg entry inh -8%[46.1 µM].
Screening C/C(=N\N=c1/scc(C)n1Cc1ccco1)c1cccc([N+](=O)[O-])c1 returned NS1 inh 3%, 2A StopGo 17%, Cruzain noTriton inconclusive, Cruzain Triton -13%, SARS PLP yeast -9%, RE007 growth inh 0%, Lassa entry inh 0% and Marburg entry inh inconclusive.
O=S(=O)(N[C@@H]1C[C@H]2CC[C@@H]1C2)c1cccs1 was read as NS1 inh 7%, 2A StopGo 35%[activator], Cruzain noTriton -3%, Cruzain Triton 4.0%, SARS PLP yeast -1%, RE007 growth inh -5%, Lassa entry inh -3% and Marburg entry inh 1%.
CCN(C(=O)COC(=O)CCC1CCCC1)c1c(N)n(Cc2ccccc2)c(=O)[nH]c1=O was read as 2A StopGo -13%, SARS PLP yeast 0%, RE007 growth inh -7%, Lassa entry inh 12% and Marburg entry inh 18%.
For O=C(Nc1ccccc1)Nc1ccc2ccccc2c1 the results were NS1 inh -8%, 2A StopGo 20%, SARS PLP yeast -1% and RE007 growth inh -8%.
Cc1nn(-c2ccccc2)c(C)c1C(=O)OC(C)C(=O)Nc1ccc(C(N)=O)cc1 (stereo not drawn) was read as 2A StopGo -14%, SARS PLP yeast -3%, RE007 growth inh 9%, Lassa entry inh 0% and Marburg entry inh 0%.
`Cc1ccc(-c2nc3ncccc3o2)cc1NC(=O)C(C)(C)C` gave NS1 inh 8%, 2A StopGo -1%, SARS PLP yeast 6% and RE007 growth inh -2%.
For O=C(O)CC(NC(=O)C12CC3CC(CC(C3)C1)C2)c1cc([N+](=O)[O-])ccc1Cl (stereo not drawn) the results were 2A StopGo -13%, SARS PLP yeast 6%, RE007 growth inh 1%, Lassa entry inh inconclusive and Marburg entry inh 10%[46.1 µM].
For CSc1ccc(NC(=O)N2CC=C(n3c(=O)[nH]c4ccccc43)CC2)cc1 the results were NS1 inh -18%, 2A StopGo inconclusive, Cruzain noTriton 11%, Cruzain Triton -4.5%, SARS PLP yeast 21%, RE007 growth inh 2%, Lassa entry inh inconclusive and Marburg entry inh inconclusive.
Screening Cc1cc([N+](=O)[O-])nn1CC(=O)N1c2ccccc2CC1C (stereo not drawn) returned NS1 inh 10%, 2A StopGo -10%, Cruzain noTriton 2%, Cruzain Triton 0.8%, SARS PLP yeast 4%, RE007 growth inh -10%, Lassa entry inh -4% and Marburg entry inh inconclusive.
`O=C(CSc1nc2c([nH]c3ccccc32)c(=O)n1-c1cccc(Cl)c1)NCC1CCCO1` (stereo not drawn) gave 2A StopGo 0%, Cruzain noTriton -3%, Cruzain Triton 3.3% and Lassa entry inh 8%[46.1 µM].
Nc1ccc(-c2nnn(Cc3ccccc3)n2)cc1 was read as 2A StopGo 36%[activator], RE007 growth inh 0%, Lassa entry inh -1%[46.1 µM] and Marburg entry inh inconclusive.
Cc1ccc(N2C(=O)/C(=C\c3ccc(C(C)C)cc3)N=C2SC2CCOC2=O)cc1 (stereo not drawn) was read as NS1 inh 2%, 2A StopGo -1%, Cruzain noTriton inconclusive, Cruzain Triton -11%, SARS PLP yeast -22%, RE007 growth inh 10%, Lassa entry inh 5µM* and Marburg entry inh 6.3µM*.
`CCOC(=O)c1c(CSc2ccccc2)n(C)c2cc(Br)c(OC)c(O)c12` gave NS1 inh inconclusive, 2A StopGo inconclusive, SARS PLP yeast 0% and RE007 growth inh 2%.
Screening CCOc1ccc(CN(C)C(=O)c2cc3ccccc3o2)cc1OC returned NS1 inh -17%, 2A StopGo -14%, SARS PLP yeast -6%, RE007 growth inh -17%, Lassa entry inh -9%[46.1 µM] and Marburg entry inh -10%[46.1 µM].
`O=c1c2ccccc2nc(/C=C/c2ccccc2)n1CCc1ccccc1` gave NS1 inh 1%, 2A StopGo -13%, Cruzain noTriton 10%, Cruzain Triton -4.4%, SARS PLP yeast -5%, RE007 growth inh -22%, Lassa entry inh 4% and Marburg entry inh 20%.
For O=C(CCn1nnnc1CN1CCOCC1)N1CCC(c2ccccc2F)C1 (stereo not drawn) the results were NS1 inh 2%, 2A StopGo 8%, SARS PLP yeast -4%, RE007 growth inh -12%, Lassa entry inh 1%[46.1 µM] and Marburg entry inh -29%[46.1 µM].
For COc1c(C(=O)Nc2ccc(Cc3ccncc3)cc2)ccc2ccccc12 the results were NS1 inh -81%, 2A StopGo inconclusive, Cruzain noTriton 6%, Cruzain Triton -9.0%, SARS PLP yeast -104%, RE007 growth inh 3%, Lassa entry inh inconclusive and Marburg entry inh inconclusive.
Screening CCC1(CC)C(=O)C(C)(C)C(=O)OC1c1ccccn1 (stereo not drawn) returned NS1 inh 3%, 2A StopGo -16%, Cruzain noTriton 1%, Cruzain Triton -3.8%, SARS PLP yeast -2%, RE007 growth inh 11%, Lassa entry inh -5% and Marburg entry inh -1%[46.1 µM].
For O=C(Nc1cccc([N+](=O)[O-])c1)C1C2CC/C=C\CCC21 (stereo not drawn) the results were NS1 inh -1%, 2A StopGo 15%, SARS PLP yeast -2%, RE007 growth inh 0%, Lassa entry inh 1% and Marburg entry inh -12%[46.1 µM].
`Cc1ccc(NC(=O)c2oc3ccccc3c2COC(C)C)cc1S(=O)(=O)N1CCOCC1` gave 2A StopGo -70%, SARS PLP yeast 4%, RE007 growth inh 0%, Lassa entry inh inconclusive and Marburg entry inh inconclusive.
`CCOc1ccc(Br)cc1-c1noc(-c2cccs2)n1` gave NS1 inh 2%, 2A StopGo -8%, Cruzain noTriton 4%, Cruzain Triton -0.2%, SARS PLP yeast 6%, RE007 growth inh 2%, Lassa entry inh 1% and Marburg entry inh 3%.
CCOC(=O)c1cc(-c2ccc(C)o2)nn1CCC#N was read as NS1 inh 3%, 2A StopGo -3%, Cruzain noTriton 2%, Cruzain Triton 6.2%, SARS PLP yeast 6%, RE007 growth inh 1%, Lassa entry inh 10% and Marburg entry inh -2%.
O=C(c1ccco1)N1CCN(C2CC(=O)N(c3ccc(F)c(Cl)c3)C2=O)CC1 (stereo not drawn) was read as NS1 inh 2%, 2A StopGo 26%, SARS PLP yeast -9%, RE007 growth inh inconclusive, Lassa entry inh 6% and Marburg entry inh 0%[46.1 µM].

Compounds as they come; overall some 4.8% were active at least once.
